Source: PubChem BioAssay
gsp agonist: activates gsp, the McCune-Albright syndrome mutation; gsp mutant cells, cAMP HTRF, 30 min; control for the full effect not named in the record; Potency, µM (highest dose often 76.9 µM), inactives show at the top dose activation (cAMP increase), hits mostly activators; hit rate 0.13% among 340,000; active = well fitted activation curve with a large enough effect; inconclusive = small, poorly fitted or top-dose-only effect, or another doubt; inactive = no such curve, though single readings can be large or run the other way; cell line not stated here;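 further: phosphodiesterase inhibitor Ro 20-1724 added with compounds to block cAMP breakdown; potency means the concentration at half of the fitted maximal effect; nearly all actives have a fitted effect of over 60% in size; about a fifth of the inactives were tested at one dose only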
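Cells in DMEM/10% FBS with G418 were pretreated with compounds in DMSO plus […] (300 uM stock) for 30 min at 37C. cAMP was measured by HTRF (cAMP-d2 plus anti-cAMP antibody-K) after 30 min at room temperature.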
TRPV1 PAM: enhances activation of the human vanilloid receptor TRPV1 | potentiation, % at 8.33 µM | TRPV1-expressing cells, Fluo-8 calcium influx, capsaicin EC20 potentiation; host cell line not named in the record; control for the full effect not named in the record | hit rate 0.02% among 320,000 | AID 540277; active means potentiation above 80%; inconclusive means 30% to 80%; inactive means below 30%; further: 0% is about no effect
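TRPV1-expressing cells were cultured overnight at 35.5C and loaded with Fluo-8 calcium dye for 40 to 90 min at room temperature. After a 10 s baseline, compound was added and calcium influx was read kinetically for 3 min (ex 480/em 520 nm).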
TRPML1 blocker: human mucolipin-1 channel inhibition; TRPML1-inducible cells, Ca2+ dye fluorescence, FDSS; active compounds read low; inhibition of EC80 agonist-evoked calcium signal; activity change, negative = inhibition, % (test concentration not listed); hit rate 0.02% among 390,000; in the data active means activity change below about -50%; inconclusive means about -30% to -50%; inactive means above about -30%;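 further: stimulus is agonist 54-4 at its EC80 concentration; on the % scale 0 is the no-effect control and ±100 the full control effect; compound concentration not given in the record; the text of the record puts the active cut at -80%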
Target sequence (Q9GZU1 whole entry, looked up): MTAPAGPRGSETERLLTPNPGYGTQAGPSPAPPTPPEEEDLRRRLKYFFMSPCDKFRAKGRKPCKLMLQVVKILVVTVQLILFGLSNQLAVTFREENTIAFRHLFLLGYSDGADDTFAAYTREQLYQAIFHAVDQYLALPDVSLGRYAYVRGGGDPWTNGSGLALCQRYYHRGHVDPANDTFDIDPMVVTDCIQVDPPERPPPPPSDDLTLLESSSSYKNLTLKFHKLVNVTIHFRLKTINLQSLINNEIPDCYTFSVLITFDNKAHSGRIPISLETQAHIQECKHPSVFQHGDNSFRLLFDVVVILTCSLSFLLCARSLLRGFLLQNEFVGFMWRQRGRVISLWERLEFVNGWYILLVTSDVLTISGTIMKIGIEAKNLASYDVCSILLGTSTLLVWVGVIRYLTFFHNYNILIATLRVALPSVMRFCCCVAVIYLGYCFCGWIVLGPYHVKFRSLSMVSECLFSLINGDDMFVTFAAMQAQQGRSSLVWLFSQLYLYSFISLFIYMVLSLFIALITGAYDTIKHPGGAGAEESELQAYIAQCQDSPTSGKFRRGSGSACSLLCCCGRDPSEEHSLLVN
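Tet-induced TRPML1-DL cells loaded with Ca8 no-wash calcium dye were read kinetically on FDSS. Compound addition was followed by EC80 agonist 54-4 (4 uM final); inhibition was read over 110 s.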
ClpP mod: qHTS Assay for Activators of ClpP; ATP-dependent Clp protease proteolytic subunit (Bacillus subtilis (strain 168)), P80244; AID 651965, 2013; Potency, µM (series often up to 57.5 µM), for the others: at the top dose activity change, negative = active; purified B. subtilis ClpP, FRET peptide cleavage, 20 min; hit rate 1.9% among 340,000; active = well fitted falling curve with a large enough effect; inconclusive = small, poorly fitted or top-dose-only effect; inactive = no such curve, though single readings can be large or run the other way; further: potency means the concentration at half of the fitted maximal effect; the source files actives as falling curves though it sought activators and does not explain the sign; nearly all actives have a fitted effect of over 65% in size; many hits overshoot -100%
Target sequence (P80244 whole entry, looked up): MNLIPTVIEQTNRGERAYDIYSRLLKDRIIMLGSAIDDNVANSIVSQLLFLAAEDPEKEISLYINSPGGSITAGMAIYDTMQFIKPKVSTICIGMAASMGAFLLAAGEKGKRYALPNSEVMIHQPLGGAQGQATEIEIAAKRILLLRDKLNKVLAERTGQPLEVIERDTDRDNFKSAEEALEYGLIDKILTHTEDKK
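ClpP 10 microg/mL final, pH 8 Tris/KCl buffer with BSA, glycerol, Tween-20; compound pinned in; FRET-FV substrate; RT 20 min; Ex320/Em430; ΔFRET vs ADEP 5.8 microM, DMSO, no enzyme.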
Sfp PPTase inh: inhibitors of Bacillus subtilis Sfp phosphopantetheinyl transferase. AID 1490. hit rate 3.5% among 310,000. Biochemical Sfp PPTase activity, qHTS. Q9F4F7. Potency, µM, without a hit: max response, negative = inhibition, actives largely listed as inhibitors; active means well fitted inhibition curve with a large enough effect; inconclusive means small, poorly fitted or top-dose-only effect, or another doubt; inactive means no such curve, though single readings can be large or run the other way;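 further: the enzyme is Sfp with the accession as filed and its product quenches rhodamine fluorescence; potency means the concentration at half of the fitted maximal effect; 0% = enzyme reaction without inhibitor and -100% = no enzyme wells; top concentration of the series not given in the record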
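Reaction rates are the 30-min fluorescence difference (ex 525, em 598 nm) in wells containing 15 nM Sfp, 5 uM rhodamine-CoA and 12.5 uM BHQ-2-YbbR at pH 7.6 with 10 mM MgCl2.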
gsp antagonist: antagonists of gsp mutant (McCune-Albright syndrome); Potency, µM (series often up to 76.9 µM), for inactives: at the highest dose activity change, negative = inhibition, usual class: inhibitors; hit rate 0.4% among 340,000; gsp-mutant cells, cAMP HTRF, 30 min; control for the full effect not named in the record; active = falling curve of any shape with a large fitted effect; inconclusive = falling curve, mostly with a smaller effect; inactive = flat or rising curve; cell line not stated here;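 further: intracellular cAMP measured with PDE inhibitor Ro 20-1724 present during compound exposure; potency means the concentration at half of the fitted maximal effect; on the % scale 0 is the no-effect control and ±100 the full control effect; nearly all actives have a fitted effect of over 65% in size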
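G418-selected cells were plated in DMEM/10% FBS for 16-24 h at 37C, then treated with compounds plus the PDE inhibitor […] (300 uM solution added) for 30 min at 37C. Intracellular cAMP was measured by HTRF after 30 min lysis at room temperature.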
Menin-MLL FL inh: inhibitors of human menin-MLL interaction, wild-type MLL peptide. FP activity change, % at 61.4 µM. 290,000 tested, under 10 active. Fluorescence polarization, fluorescein-MLL peptide displacement from menin; inconclusive = falling polarisation curve, or a change in total fluorescence; inactive = total fluorescence flat and polarisation flat or rising; no compound was filed as active; the % refers to the polarisation; negative = inhibition;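 further: % of control where 0% means no effect; inhibitors lower the polarisation; unlabelled MLL peptide was the positive control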
* = called active by the depositor; u = inconclusive; x = not tested or not shown; [ ] = another dose, or the depositor's remark.

SMILES | gsp agonist | TRPV1 PAM | TRPML1 blocker | ClpP mod | Sfp PPTase inh | gsp antagonist | Menin-MLL FL inh
Cc1cccc(NC(=S)N2CCCC(c3nc4ccccc4[nH]3)C2)c1 (stereo not given) | 11% | 27 | -2 | -1.6% | 18% | -12% | -2.4
Cc1ccccc1C(=O)NC1CCN(CC(=O)Nc2ccccc2)CC1 | 1% | 6 | 6 | -4.5% | 19% | 3% | -5.4
O=C(CSc1nc2nn(-c3ccccc3)c(=O)c-2c2n1CCCCC2)NCCCc1ccccc1 | 5%[15.4 µM] | 10 | -2 | x | 9% | u | -5.2
COC(=O)c1ccc(CN2CCC(n3nccc3NC(=O)C3CC3)CC2)cc1 | 7% | 1 | 7 | -0.8% | 17% | 1% | 1.0
O=C(Nc1ccccc1N1CCN(C(=O)c2ccc(Cl)cc2)CC1)c1cccnc1 | 1% | -9 | -24 | 1.3% | -1% | -17% | -1.0
CCOC(=O)C1=C(COC(=O)/C=C/c2ccc(C)o2)NC(=O)NC1C (stereo not given) | 4% | 0 | -1 | -8.0% | x | 4% | x
C/C(=N\NC(=O)c1ccccc1)c1ccc(NC(=O)c2cccs2)cc1 | -8% | 3 | -3 | 1.0% | -3% | 6% | 7.1
C/C(=N\NC(=O)c1cccc(S(=O)(=O)N2CCCC2)c1)c1ccc(C)cc1 | 4% | -18 | 10 | 0.6% | x | 2% | x
COCCNC(=O)C(=O)NNS(=O)(=O)c1ccc(Cl)cc1 | -46%[inhibitor] | 2 | 2 | x | -4% | 2% | -2.7
CC1CN(C(=O)[C@@H]2CCCN2S(=O)(=O)c2ccc(Cl)cc2)CC(C)O1 (stereo not given in full) | -2% | x | 10 | x | x | 3% | x
COc1ccc(S(=O)(=O)Cc2ccc(C(=O)N3CC(C)CC(C)C3)o2)cc1 (stereo not given) | -30%[inhibitor] | 14 | -13 | 1.2% | 2% | 0% | -1.3
O=C(Nc1nc2ccc3ccccc3c2s1)c1ccc(N2CCCCC2)c([N+](=O)[O-])c1 | -11% | -6 | 29 | 1.3% | 1% | -7% | -0.8
Fc1cccc(Cl)c1CSc1nnc(COc2cccc3cccnc23)o1 | 8% | u | 18 | -8.7% | -4% | u | -2.2
N#Cc1cnn(Cc2ccc(Cl)cc2)c1N | 6% | 10 | 0 | 0.6% | 12% | 4% | -0.7
CCOC(=O)N1CCN(c2nnnn2-c2ccccc2)CC1 | -54%[inhibitor] | -6 | -1 | 1.0% | 28% | -2% | -0.2

Part of the list above, reformatted.
| Structure | gsp agonist | TRPV1 PAM | TRPML1 blocker | ClpP mod | Sfp PPTase inh | gsp antagonist | Menin-MLL FL inh |
| --- | --- | --- | --- | --- | --- | --- | --- |
| O=C(Nc1nc2ccc3ccccc3c2s1)c1ccc(N2CCCCC2)c([N+](=O)[O-])c1 | -11% | -6 | 29 | 1.3% | 1% | -7% | -0.8 |
| Fc1cccc(Cl)c1CSc1nnc(COc2cccc3cccnc23)o1 | 8% | u | 18 | -8.7% | -4% | u | -2.2 |

Molecules listed so far that have a halogen:
SMILES | gsp agonist | TRPV1 PAM | TRPML1 blocker | ClpP mod | Sfp PPTase inh | gsp antagonist | Menin-MLL FL inh
O=C(Nc1ccccc1N1CCN(C(=O)c2ccc(Cl)cc2)CC1)c1cccnc1 | 1% | -9 | -24 | 1.3% | -1% | -17% | -1.0
COCCNC(=O)C(=O)NNS(=O)(=O)c1ccc(Cl)cc1 | -46%[inhibitor] | 2 | 2 | x | -4% | 2% | -2.7
CC1CN(C(=O)[C@@H]2CCCN2S(=O)(=O)c2ccc(Cl)cc2)CC(C)O1 (stereo not given in full) | -2% | x | 10 | x | x | 3% | x
Fc1cccc(Cl)c1CSc1nnc(COc2cccc3cccnc23)o1 | 8% | u | 18 | -8.7% | -4% | u | -2.2
N#Cc1cnn(Cc2ccc(Cl)cc2)c1N | 6% | 10 | 0 | 0.6% | 12% | 4% | -0.7

Later entries:
SMILES | gsp agonist | TRPV1 PAM | TRPML1 blocker | ClpP mod | Sfp PPTase inh | gsp antagonist | Menin-MLL FL inh
CN(C(=O)c1ccc(NC(=O)Cc2ccc(NC(=O)C3CCCN(C(=O)c4ccccc4)C3)cc2)cc1)C1CC1 (stereo not given) | x | -18 | 21 | 0.8% | x | 5% | x
CC(C)C(=O)N(c1ccc2oc(=O)sc2c1)S(=O)(=O)c1cccs1 | 16% | 4 | 21 | 2.9% | u | -17% | 1.9
CN(C)C(=O)COc1ccc(Br)cc1 | -3% | 7 | 1 | -1.4% | 6% | 12% | 5.6
CC1=NN(c2ccc([N+](=O)[O-])cc2)C(=O)C1 | 0%[15.4 µM] | x | -4 | -1.5% | x | 2% | x
O=C(CSc1nc2ncc(Cl)cc2[nH]1)N1CCOCC1 | -2% | x | 28 | x | x | -2% | x
Cc1ccc(C(=O)O)cc1NC(=O)c1ccc(Cn2nc(C)c(Cl)c2C)o1 | 0%[15.4 µM] | 1 | 4 | x | 56µM* | -10% | -2.6
COC(=O)c1ccccc1NC(=O)CSc1ncccn1 | -5%[15.4 µM] | 22 | 40 | 1.0% | 18% | -13% | -1.5
COc1ccccc1/C=C/C=c1\sc2nc(=O)c(Cc3ccccc3)nn2c1=O | -10%[15.4 µM] | -13 | 92 | 0.8% | 56µM* | 5% | 27
CC(=O)OCC(=O)NCc1ccc2c(c1)OCO2 | -17% | 5 | 39 | -1.7% | 14% | 12% | -1.5
COc1ccc(-c2nnn(Cc3nc(N)nc(N4CCOCC4)n3)n2)cc1OC | 8% | 3 | 69 | u | 12% | 4% | 1.4
CCOC(=O)N1CCC(NC(=O)c2cnc3n(c2=O)CCS3)CC1 | -10% | -5 | -4 | -7.0% | 7% | 5% | -2.7
CC(Oc1ccccc1)C(=O)Nc1ccc(S(=O)(=O)N2CCCC2)cc1 (stereo not given) | 7%[15.4 µM] | -15 | 3 | x | 12% | -7% | -0.6
CCOCCCNC(=O)C(NC(=O)CC1NC(=O)NC1=O)c1ccc(Cl)cc1 (stereo not given) | 12% | 8 | 7 | -0.3% | 12% | 11% | -0.5
CN(C)S(=O)(=O)c1ccc2c(c1)c(=O)c(C(=O)N1CCOCC1)cn2C | -3% | x | 4 | 1.0% | -12% | 9% | 3.6
CC(C(=O)Nc1ccc(S(=O)(=O)N2CCCC2)cc1)N(C)CC(=O)Nc1cccc(F)c1 (stereo not given) | 15% | x | -26 | -2.8% | x | -1% | x
CCCN(CC(=O)Nc1ccccc1C)C(=O)c1ccc(C2SCCS2)cc1 | -29% | -3 | -1 | -2.2% | x | -4% | x
Cc1cccn2c(=O)nc(SCC(=O)Nc3ccc4c(c3)OCCO4)nc12 | u | -12 | 20 | -4.8% | x | 6% | x
Brc1cnc2nc(SC/C=C/c3ccccc3)[nH]c2c1 | -3%[15.4 µM] | 24 | 16 | x | 2% | -4% | 7.0
COc1ccccc1-c1noc(-c2cccnc2)n1 | 4% | 20 | -17 | -2.1% | 4% | 6% | 4.8
CCOC(=O)c1ccc(N2C(=O)CC(Sc3nnc(C)s3)C2=O)cc1 (stereo not given) | -23% | 11 | -2 | -0.9% | 45µM* | -2% | 4.1
Cc1ccc(C(=O)NC(Cc2c[nH]c3ccccc23)C(=O)O)o1 (stereo not given) | 5% | 6 | -22 | 2.3% | -10% | -9% | 3.7
Cc1cccn2cc(CCNC(=O)Cc3cccs3)nc12 | u | 0 | u | 4.0% | 24% | 4% | 0.8
Nc1cc2c(cc1C(=O)c1ccc(Cl)cc1)OCCO2 | 0% | -12 | -1 | -0.9% | -8% | 7% | 0.4
CS(=O)(=O)N1CCC(Oc2cccc(C(=O)NCCCC3CCCC3)c2)CC1 | 22% | x | -4 | -0.4% | x | u | x
Cc1ccc(CNc2cnn(C34CC5CC(CC(C5)C3)C4)c(=O)c2Cl)cc1 | -10% | 7 | 30 | -1.2% | -1% | 6% | 0.8
COc1ccccc1N1C(=O)CSC1=S | 11% | -13 | 15 | 0.4% | 4% | 6% | 0.2
C#CCOCCOCCOCCNc1nc(N2CCN(C(=O)[C@H](CCCCN)n3cc([C@@H](N)CO)nn3)CC2)nc(N2CCN(C(=O)[C@H](Cc3cc4ccccc4[nH]3)n3cc([C@@H](N)Cc4ccc(O)cc4)nn3)CC2)n1 | x | 10 | x | x | -3% | x | 8.1
CCN(CC)CCCNC(=O)c1ccc(C)c(NC(=O)C2=C(C)OCCS2)c1 | -18% | -10 | x | -3.4% | 22% | 11% | 4.0
CCn1c(=N)n(CC(=O)c2ccc(OC)cc2)c2ccccc21 | 17% | 2 | 26 | -5.2% | 11% | 7% | 1.4
CC(=O)OCCCNc1cc(SCc2ccco2)c2nonc2c1[N+](=O)[O-] | -19% | 3 | -6 | -1.6% | 25µM* | -10% | -1.2
COc1ccc(C(=O)COC(=O)C(C)N2C(=O)C3C4CCC(C4)C3C2=O)cc1 (stereo not given) | 0%[15.4 µM] | -6 | -15 | x | 11% | 6% | -11
Cc1ccc(NC(=O)CN(C)C(=O)C(C)OC(=O)CNC(=O)c2ccc(Cl)c([N+](=O)[O-])c2)cc1 (stereo not given) | -6%[15.4 µM] | 1 | 3 | x | x | -14% | x
CCC(C)NC(=O)[C@@H]1CCCN1C(=O)C1CCN(S(=O)(=O)c2ccc(C)cc2)CC1 (stereo not given in full) | u | u | 9 | -1.4% | 3% | 8% | x
COc1ccc(C(=O)NCCc2ccccc2F)cc1OC1CCN(C(C)=O)CC1 | -19%[15.4 µM] | 8 | -3 | -1.7% | 18% | 6% | x
COc1cccc(C2C(=O)N(C3CCCCC3)CC(=O)N2Cc2ccc(F)cc2)c1 (stereo not given) | -7% | 28 | 3 | -3.7% | -4% | -15% | 3.6
COc1cc(/C=N/NC(=O)c2cccc([N+](=O)[O-])c2)cc(OC)c1O | -87%[inhibitor] | -25 | 28 | 0.3% | -13% | 0% | -2.5
Cc1cc(=O)c2cc3nc(-c4cccnc4)oc3c(Br)c2o1 | x | u | x | x | -4% | x | 8.2

An unsorted share of the library, and some 4.9% of all compounds hit somewhere here.
